Cruzain inh noDet: qHTS Assay for Promiscuous and Specific Inhibitors of Cruzain (without detergent); purified cruzain, Z-FR-AMC fluorescence, no detergent; Cruzipain (Trypanosoma cruzi), P25779; 2.3% of 200,000 active; Potency, µM, without a hit: max response, negative = inhibition, usual class: inhibitors;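 note: plate controls were enzyme without inhibitor for no effect and buffer without enzyme for full effect; nearly all actives have a fitted effect of over 40% in size; top concentration of the series not given in the record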
Target sequence (P25779 123-467 limits assumed): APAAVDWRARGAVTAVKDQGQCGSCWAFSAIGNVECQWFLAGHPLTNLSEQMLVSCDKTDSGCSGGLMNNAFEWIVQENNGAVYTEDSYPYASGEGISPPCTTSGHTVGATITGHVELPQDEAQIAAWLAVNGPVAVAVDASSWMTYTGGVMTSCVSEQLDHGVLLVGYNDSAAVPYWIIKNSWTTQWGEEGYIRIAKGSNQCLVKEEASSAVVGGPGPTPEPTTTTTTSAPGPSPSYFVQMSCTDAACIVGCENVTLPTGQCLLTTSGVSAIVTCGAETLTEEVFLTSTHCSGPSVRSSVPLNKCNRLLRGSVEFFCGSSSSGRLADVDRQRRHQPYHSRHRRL
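Purified cruzain at 1.5 nM, pre-incubated 15 min with compound at room temperature in 100 mM sodium acetate pH 5.5, 5 mM DTT, 0.00005% Triton X-100. Reaction started with 2 uM Z-FR-AMC; AMC fluorescence increase over 60 s gives rate.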
Cruzain inh Det: qHTS Assay for Promiscuous and Specific Inhibitors of Cruzain (with detergent). Cruzipain (Trypanosoma cruzi), P25779. purified cruzain, Z-FR-AMC fluorescence, 0.01% Triton. Potency, µM, for the others: max response, negative = inhibition, actives largely listed as inhibitors. 0.43% of 200,000 active;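 note: plate controls were neutral wells for no effect and buffer without enzyme for full effect; nearly all actives have a fitted effect of over 40% in size; top concentration of the series not given in the record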
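Steps: dispense cruzain (1.5 nM final) in acetate buffer pH 5.5 with DTT and 0.01% Triton X-100; pin-transfer compounds; incubate 15 min RT; add Z-FR-AMC (2 uM final); read fluorescence every 30 s, using the 60 s intensity change.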
2A StopGo: High Throughput Screening for Foot and Mouth Disease Virus Antivirals. 1.2% of 410,000 active. human cells with a luciferase reporter of 2A StopGo recoding; control for the full effect not named in the record. AID 1159524, 2015. Potency, µM (titrated, usually from 57.9 µM), for the others: at the highest dose signal change, negative = less light; active = well fitted falling curve with a large enough effect; inconclusive = small, poorly fitted or top-dose-only effect; inactive = no such curve, though single readings can be large or run the other way; tested in HEK293T cells; note: % is set by controls: 0 for no effect and ±100 for the full control effect; nearly all actives have a fitted effect of over 45% in size; luciferase light after 4 h
MARV entry inh: qHTS for inhibitors of binding or entry into cells for Marburg Virus. AID 540276, 2011. Potency, µM (titrated, usually from 37.8 µM), for the others: at the top dose activity change, negative = inhibition, hits mostly inhibitors. 1.8% of 300,000 active. Marburg virus pseudotyped entry inhibition, cell reporter; control for the full effect not named in the record; about a third of the inactives were read at about 46 µM; active = well fitted inhibition curve with a large enough effect; inconclusive = small, poorly fitted or top-dose-only effect, or effect the other way; inactive = flat fitted curve, though single readings scatter; tested in HEK293 cells; about a fifth of its hits are not listed in these tables; note: % is set by controls: 0 for no effect and ±100 for the full control effect; luciferase read-out
SARS PLpro yeast: qHTS of Yeast-based Assay for SARS-CoV PLP. 0.19% of 330,000 active. S. cerevisiae expressing SARS-CoV PLpro, growth rescue; control for the full effect not named in the record. AID 485353, 2010. Potency, µM (doses to about 32.9 µM), inactives show top-dose activity, positive = growth rescue; active means well fitted rising curve with a large enough effect; inconclusive means small, poorly fitted or top-dose-only effect; inactive means no such curve, though single readings can be large or run the other way; note: 0% is about no effect; nearly all actives have a fitted effect of over 55% in size; growth read by luminescence after 48 h
Lassa entry inh: qHTS for Inhibitors of binding or entry into cells for Lassa Virus. Lassa virus pseudotype entry inhibition, cell reporter; control for the full effect not named in the record. Potency, µM (titrated, usually from 37.9 µM), for the others: at the highest dose activity change, negative = inhibition, usual class: inhibitors. 1.2% of 300,000 active. AID 540256, 2011; active means well fitted inhibition curve with a large enough effect; inconclusive means small, poorly fitted or top-dose-only effect, or effect the other way; inactive means flat fitted curve, though single readings scatter; tested in HEK293 cells; note: % is set by controls: 0 for no effect and ±100 for the full control effect; nearly all actives have a fitted effect of over 50% in size; luciferase read-out
RE007 growth inh: qHTS Assay for Inhibitors of the HIV-1 protein Vpr; S. pombe RE007 Vpr strain, BacTiter-Glo ATP luminescence, 24 h; control for the full effect not named in the record; Potency, µM (highest dose often 92.2 µM), for inactives: top-dose activity change, negative = less growth; 0.21% of 360,000 active; AID 651644, 2012; active = well fitted falling curve with a large enough effect; inconclusive = small, poorly fitted or top-dose-only effect; inactive = no such curve, though single readings can be large or run the other way;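 note: % is set by controls: 0 for no effect and ±100 for the full control effect; nearly all actives have a fitted effect of over 50% in size; the assay follows cell death caused by Vpr and the record does not say whether a fall means rescue or toxicity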
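Fission yeast strain RE007, carrying one chromosomally integrated HIV-1 vpr copy, was seeded at OD 0.01 in PMG+AL medium with 23 nL pinned compound. After 24 h at 30 °C and 99% humidity, viability was read by BacTiter-Glo luminescence.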
NS1 function inh: qHTS Assay for Inhibitors of Influenza NS1 Protein Function; S. cerevisiae slowed by influenza A NS1, growth recovery by OD600; Potency, µM (highest dose often 46.1 µM), inactives show at the highest dose activity, positive = more growth; 0.4% of 270,000 active; AID 2326, 2010; active means well fitted rising curve with a large enough effect; inconclusive means small, poorly fitted or top-dose-only effect; inactive means no such curve, though single readings can be large or run the other way; note: nearly all actives have a fitted effect of over 50% in size
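S. cerevisiae expressing influenza A NS1, grown in glucose, washed, then diluted 1:100 into pH 6.0 -URA galactose medium with 23 nl compound. Growth recovery read as OD600; NS1-free strain serves as control.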
Numbers without * were called inactive; ? = inconclusive; . = not tested or not shown; & = joins results of further samples; [ ] = another dose, or the depositor's remark. Unless noted, calls come from the whole dose curve; as a rule, active = well fitted curve in the direction sought with a large enough effect; inconclusive = small, poorly fitted or top-dose-only effect, or another doubt; inactive = no such curve, though single readings can be large; an effect the other way counts as inactive or inconclusive. Potency is the fitted concentration of half-maximal effect. The order is random; any-hit rate near 4.7%.

Letter code: A = Cruzain inh noDet; B = Cruzain inh Det; C = 2A StopGo; D = MARV entry inh; E = SARS PLpro yeast; F = Lassa entry inh; G = RE007 growth inh; H = NS1 function inh
SMILES: CCOc1ccc(C(C(=O)NC2CCCC2)N(Cc2ccccc2)C(=O)c2nsc(Cl)c2Cl)cc1 (centres undefined)
  A: 0%; B: -2.6%; C: 2%; D: .; E: ?; F: .; G: 5%; H: 1%
SMILES: O=C(CCc1ccccc1)Nc1nc2n(n1)C(c1ccccc1)CC(=O)N2 (centres undefined)
  A: 11%; B: 4.4%; C: -2%; D: -1%; E: 4%; F: -6%; G: 12%; H: 4%
SMILES: CN(C)c1ccc(C(=S)N2CCN(S(=O)(=O)c3ccccc3)CC2)cc1
  A: .; B: .; C: -26%; D: .; E: 8%; F: .; G: 4%; H: 5%
SMILES: COc1cccc(-c2cc(C(=O)Nc3ccc([N+](=O)[O-])cn3)c3ccccc3n2)c1
  A: ?; B: -7.5%; C: ?; D: ?; E: -12%; F: 5%; G: -9%; H: 9%
SMILES: Cc1ccsc1C(=O)C1CCCN(Cc2ccc(-n3cccn3)cc2)C1 (centres undefined)
  A: .; B: .; C: -6%; D: .; E: 0%; F: .; G: -24%; H: -2%
SMILES: COC(=O)CN1C(=O)C(O)(c2c(C)[nH]c3ccccc23)c2ccccc21 (centres undefined)
  A: -7%; B: 7.2%; C: -2%; D: .; E: .; F: 12%[46.1 µM]; G: .; H: .
SMILES: C/C(=N/O)c1no[n+]([O-])c1/C(C)=N\O
  A: .; B: .; C: -8%; D: -13%; E: 1%; F: 7%; G: -16%; H: 0%
SMILES: COc1ccc(C(=O)N2CCN(S(=O)(=O)c3ccc(Cl)cc3)CC2)cc1OC
  A: 9%; B: 2.7%; C: ?; D: -3%; E: ?; F: 16%; G: -1%; H: -6%
SMILES: COc1ccc(-c2nc(CN3CCN(c4ncccn4)CC3)c(C)o2)cc1C
  A: .; B: .; C: -4%; D: 26%[46.1 µM]; E: 1%; F: 7%; G: -5%; H: -2%
SMILES: Cc1ccc(C)c(N/N=C2\CCCNC2=O)c1
  A: -12%; B: -10%; C: 22%; D: 65%; E: -27%; F: -13%; G: -10%; H: -6%
SMILES: COC(=O)c1cc(=O)nc2sc(-c3ccccc3)nn12
  A: 8%; B: 0.9%; C: -15%; D: 12%; E: 4%; F: -11%; G: -4%; H: 7%
SMILES: O=C(Nc1ccc(S(=O)(=O)Nc2ncccn2)cc1)c1nn(Cc2ccccc2)c(=O)c2ccccc12
  A: .; B: .; C: 4%; D: 6%[46.1 µM]; E: 2%; F: 12%; G: -8%; H: 6%
SMILES: COc1cccc(N2CCN(C(=O)CN(c3cc(C)cc(C)c3)S(=O)(=O)c3c(C)noc3C)CC2)c1
  A: .; B: .; C: ?; D: .; E: 0%; F: .; G: -11%; H: -3%
SMILES: COc1ccc(C(CC(=O)N2CCCC2)C(C)C)cc1 (centres undefined)
  A: .; B: .; C: -1%; D: .; E: 1%; F: .; G: 0%; H: -3%
SMILES: COc1ccccc1Nc1nc(C)nc2c1oc1ccccc12
  A: .; B: .; C: -31%; D: ?; E: 0%; F: ?; G: 5%; H: -7%
SMILES: Cc1sc(NC(=O)c2ccco2)c(C(c2cccnc2)N2CCC(C)CC2)c1C (centres undefined)
  A: 7%; B: -14%; C: 18µM*; D: ?; E: -27%; F: 21µM*; G: -19%; H: -107%
SMILES: O=C(CN1CCCCC1)c1ccc(OC(F)F)cc1
  A: -11%; B: -1.3%; C: 11%; D: 13%; E: ?; F: 21%; G: -10%; H: 3%
SMILES: O=C(Nc1ccc(C(=O)O)cc1)/C(=C\c1ccccc1)NC(=O)c1ccccc1
  A: .; B: .; C: 2%; D: 10%; E: -1%; F: 4%; G: 0%; H: 20%
SMILES: Cc1ccccc1-n1nc2c(c1NC(=O)c1cccc(F)c1)CS(=O)C2 (centres undefined)
  A: -10%; B: 5.6%; C: -23%; D: .; E: -10%; F: .; G: -3%; H: 0%
SMILES: C=CCNC(=O)NC(=O)COC(=O)/C(C#N)=C/c1cc(C)n(CCC(C)C)c1C
  A: -3%; B: -2.8%; C: 6%; D: 25%; E: -9%; F: -22%[14.3 µM]; G: -4%; H: 9%
SMILES: Cc1ccc(-c2cc(C(F)F)n3ncc(C(=O)N4CCN5CCCC5C4)c3n2)cc1 (centres undefined)
  A: -6%; B: -1.9%; C: 0%; D: ?; E: 14%; F: -1%; G: -6%; H: 2%
SMILES: CCOC(=O)C1=C(C)Nc2nc(C)nn2C1c1ccc(OC)c(OC)c1 (centres undefined)
  A: -6%; B: -1.0%; C: -4%; D: 2%; E: -8%; F: 5%; G: 3%; H: -13%
SMILES: CCn1cc(/C=C(\NC(=O)c2ccccc2)C(=O)NCCCN2CCOCC2)c2ccccc21
  A: .; B: .; C: -6%; D: .; E: -5%; F: .; G: -4%; H: -3%
SMILES: COc1ccccc1-n1c([S-])c(C(=O)Nc2ccccc2C(F)(F)F)[n+]2ccc(C(=O)NCCO)cc12
  A: .; B: .; C: -20%; D: ?; E: 0%; F: ?; G: 4%; H: .
SMILES: COCCCNC(=O)CN(CCc1ccccc1)S(=O)(=O)c1ccccc1
  A: .; B: .; C: 8%; D: -2%[46.1 µM]; E: 0%; F: 5%[46.1 µM]; G: -10%; H: -7%
SMILES: O=C1Nc2ccc([N+](=O)[O-])cc2C1(O)N1CCCCCC1 (centres undefined)
  A: -5%; B: 2.5%; C: 9%; D: 12%; E: -1%; F: 9%; G: -1%; H: 4%
SMILES: CCOCCn1c(SCc2c(F)cccc2Cl)nc2c1c(=O)[nH]c(=O)n2C
  A: -3%; B: 2.8%; C: -11%; D: -30%&-30%&-30%; E: 0%; F: ?; G: 13%; H: 4%
SMILES: CCC(C)(C)NS(=O)(=O)c1cc(CN2C(=O)c3cccnc3C2=O)ccc1OC
  A: .; B: .; C: -8%; D: .; E: 0%; F: .; G: 8%; H: 2%
SMILES: Cc1ccc(C)c(Cn2c(C(C)NC(=O)c3ccc(F)cc3)nc3ccccc32)c1 (centres undefined)
  A: 1%; B: -1.8%; C: -21%; D: 3%[46.1 µM]; E: .; F: 17%[46.1 µM]; G: .; H: .
SMILES: O=C(Nc1ccc(S(=O)(=O)Nc2ncccn2)cc1)C1=COCCO1
  A: .; B: .; C: 16%; D: 12%; E: -2%; F: 15%; G: 8%; H: .
SMILES: O=C(N/N=C/c1ccco1)C1CC1c1ccccc1 (centres undefined)
  A: 8%; B: -1.0%; C: 5%; D: 27%; E: 1%; F: 18µM*; G: 21%; H: -12%
SMILES: Cc1ccc(NC(=O)c2ccc(CN3CCc4ccccc4C3)cc2)cc1
  A: 1%; B: -0.7%; C: 8%; D: ?; E: -18%; F: ?; G: -12%; H: -7%
SMILES: C=CCn1cc(/C=C/c2cc[n+](C)cc2)c2ccccc21
  A: .; B: .; C: ?; D: .; E: 1%; F: .; G: -14%; H: -3%
SMILES: COc1ccc(NC(=O)N2CCCc3ccccc32)cc1OC
  A: .; B: .; C: -5%; D: .; E: -4%; F: .; G: 18%; H: -16%
SMILES: CCOCCn1c(N(C)Cc2ccccc2)nc2c1c(=O)[nH]c(=O)n2C
  A: 6%; B: -7.0%; C: -22%; D: -15%; E: 8%; F: 0%; G: 5%; H: -12%
SMILES: O=C(CSCc1ccccc1)NC1CCSC1=O (centres undefined)
  A: 2%; B: 0.7%; C: 17%; D: -27%; E: -2%; F: -3%; G: -1%; H: -1%
SMILES: O=C1Nc2cc(C(=O)N3CCc4ccccc4C3)ccc2S/C1=C\c1ccccc1
  A: -89%; B: -7.9%; C: -8%; D: ?; E: 7%; F: 12%; G: -3%; H: 25%
SMILES: COc1cccc(C2CC(c3ccccc3Cl)Nc3ncnn32)c1 (centres undefined)
  A: .; B: .; C: -14%; D: 4%; E: .; F: 12%; G: 0%; H: -9%
SMILES: O=C(NCCO)c1ccc2[nH]c3c(c2c1)CCCC3
  A: 0%; B: 3.3%; C: 20%; D: ?; E: -1%; F: ?; G: -2%; H: 1%
SMILES: CC(=O)NC(Cc1cccc(F)c1)C(=O)NC1CCN(C(=O)c2ccc(C)cc2)CC1 (centres undefined)
  A: .; B: .; C: -4%; D: 9%[46.1 µM]; E: 5%; F: 5%[46.1 µM]; G: 1%; H: 5%
SMILES: Cc1cc(C)n(CCC(=O)N2CCc3ccccc32)n1
  A: .; B: .; C: -7%; D: .; E: ?; F: .; G: 3%; H: 7%
SMILES: COc1ccccc1NCCC(=O)OCC(=O)NC1CCCCC1
  A: -1%; B: -4.1%; C: -12%; D: ?; E: 25%; F: 17%; G: -8%; H: 3%
SMILES: O=C(O)COc1ccc(-c2nnn(CC(=O)O)n2)cc1
  A: 7%; B: -1.4%; C: 15%; D: 20%; E: .; F: -8%; G: -1%; H: 4%
SMILES: O=S(=O)(Nc1cccc(S(=O)(=O)N2CCOCC2)c1)c1cccs1
  A: .; B: .; C: -6%; D: 24%; E: 15%; F: 2%; G: -9%; H: 4%
SMILES: CN(C(=O)CSc1nncc2ccccc12)c1ccccc1
  A: .; B: .; C: -4%; D: -13%; E: 0%; F: -23%; G: 8%; H: .
SMILES: O=C1NC(=O)N(Cc2ccco2)C(=O)/C1=C\c1cccn1CCOc1ccc(Cl)cc1
  A: 6%; B: -8.5%; C: 35µM*; D: 12%; E: -19%; F: -15%; G: -4%; H: 5%

Reformatted: results already given
structure,Cruzain inh noDet,Cruzain inh Det,2A StopGo,MARV entry inh,SARS PLpro yeast,Lassa entry inh,RE007 growth inh,NS1 function inh
C=CCn1cc(/C=C/c2cc[n+](C)cc2)c2ccccc21,.,.,?,.,1%,.,-14%,-3%
O=C(NCCO)c1ccc2[nH]c3c(c2c1)CCCC3,0%,3.3%,20%,?,-1%,?,-2%,1%

High-throughput results: PubChem, National Center for Advancing Translational Sciences (NCATS)
